# TAR Tat displ: HIV-1 TAR-Tat binding disruption; HIV-1 TAR RNA, Tat peptide displacement FRET; stronger effect = higher value; 100,000 tested, 0.6% active; AID 1259389; z-score (test concentration not listed);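 also: score is relative to mean and SD of negative controls; some compounds called inactive have numbers as strong as hits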
# CDC25B CDK2 inh: human CDC25B-CDK2/CyclinA binding inhibition; HTRF CDC25B-CDK2/CyclinA binding, anti-His/anti-Flag; stronger effect = higher value; 94,000 tested, 0.72% active; P30305+P24941; AID 1259370; z-score (no concentration beside the values);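 also: score is relative to mean and SD of negative controls; strong numbers were not always called active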
# * marks the source's active call; other numbers are inactive results; x = no result given.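 The calls were made as follows: active = z-score from 3 up in half or more of its runs; inactive = the rest.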
# Under each structure: TAR Tat displ, CDC25B CDK2 inh
CCOC(=O)c1c(NC(C)=O)c2c(C)c(C)sc2n1Cc1cc(=O)n2ccccc2n1
  0.98, x
CC(C)NC(=O)CCC(=O)n1ncc2cc(Cl)ccc21
  2.4, 0.23
O=C(Nc1cc(Cl)cc(Cl)c1)c1ccccc1F
  x, 0.47
CCOC(=O)C1=C(C)Nc2nc(SCc3cccc(C)c3)nn2C1c1cccs1 (stereo not drawn)
  1.4, -2.7
O=C(Cc1ccc(Cl)cc1)n1cc(Cl)cn1
  -0.32, 0.21
O=C(Cn1ncc2c3ccccc3n(Cc3ccccc3)c2c1=O)N1CCOCC1
  -1.6, -0.86
O=C(CN1CCCCC1)N1c2ccccc2CCc2ccccc21
  2.4, -1.1
COc1ccc(-c2noc(COc3ccc(C(C)C)cc3)n2)cc1OC
  0.39, -1.8
Cc1cc2n(n1)CCCN2C(=O)CCC(=O)NC1CCC(C)CC1 (stereo not drawn)
  1.8, x
c1ccc(-c2nnc(-c3ccccc3)o2)cc1
  0.82, -0.47
N#Cc1c(O)c2c3c(sc2[nH]c1=O)CCCC3
  x, -1.9
O=C(C1CC(=O)N(c2ccccc2)C1)N1CCC(NS(=O)(=O)c2ccccc2)CC1 (stereo not drawn)
  0.57, x
O=C1CCSc2ccc(S(=O)(=O)Nc3ccccc3)cc2N1
  -0.39, x
CCN(CC)CCCC(C)NC(=O)c1cc2c(=O)n3cccc(C)c3nc2n1C (stereo not drawn)
  2, x
CCOC(=O)c1c(S(=O)(=O)NCC2CCN(CCc3cccs3)CC2)c(C)n(C)c1C
  1.7, x
O=C1CCCc2cc(S(=O)(=O)N3CCC(C(=O)N4CCc5ccccc5C4)CC3)ccc2N1
  1.9, x
COCCN1C(=O)c2[nH]nc(-c3ccccc3O)c2C1c1cc(Br)c(O)c(OC)c1 (stereo not drawn)
  1.6, -0.42
CCN(C(=O)c1noc2c1CCc1sccc1-2)c1ccccc1
  0.92, x
COc1cc2[nH]c(=O)n(CCC(=O)N3CCC(C(N)=O)(N4CCCCC4)CC3)c(=O)c2cc1OC
  x, 1.1
O=C(C1CCN(S(=O)(=O)c2cccnc2)CC1)N1CCCc2ccccc21
  2.7, x

# Record cards, as listed above. Screens in order: TAR Tat displ | CDC25B CDK2 inh
# `COc1ccc(-c2noc(COc3ccc(C(C)C)cc3)n2)cc1OC` is entered as 0.39 | -1.8
# `O=C(C1CCN(S(=O)(=O)c2cccnc2)CC1)N1CCCc2ccccc21` is entered as 2.7 | x
# `CC(C)NC(=O)CCC(=O)n1ncc2cc(Cl)ccc21` is entered as 2.4 | 0.23
# `O=C1CCCc2cc(S(=O)(=O)N3CCC(C(=O)N4CCc5ccccc5C4)CC3)ccc2N1` is entered as 1.9 | x

# Other structures.
# Under each structure: TAR Tat displ, CDC25B CDK2 inh
CC(C)NS(=O)(=O)c1cn(CC(=O)NC2CCCCC2)cc1S(=O)(=O)NC(C)C
  1.6, x
CC(C)C(=O)OCc1cc(=O)n2ccsc2n1
  0.88, x
CCc1ccc(CN(C(=O)c2cc(=O)c3ccc(C)cc3o2)C2CCS(=O)(=O)C2)cc1 (stereo not drawn)
  -0.27, -2.3
CSc1nn(CSc2c(Cl)cccc2Cl)c(=S)s1
  x, -0.56
COCCOC(=O)c1cnn2c(C(F)(F)F)cc(-c3ccccc3)nc12
  2.4, -0.09
COc1cccc(-c2nc3c(c(=O)[nH]2)Cc2cc(Cl)ccc2O3)c1O
  4.9*, -0.74
Cc1ccnc(Nc2nc(-c3c(C)nc4ccccn34)cs2)c1
  0.54, -1.4
Cc1onc(-c2ccccc2)c1C(=O)Cn1cc([N+](=O)[O-])nc1C
  x, -2.9
CCCCC(=O)Nc1cc(-c2cn3cccnc3n2)ccc1C
  x, -1.8
CCOC(=O)Cn1c(C2CC(=O)N(c3ccccc3Cl)C2)nc2ccccc21 (stereo not drawn)
  2, -1.5
COc1ccc([N+](=O)[O-])c(OC)c1C(=O)Oc1c(Br)cc(C(F)(F)F)cc1[N+](=O)[O-]
  x, -0.4
Cc1ccc(C)n1CCn1c(C)ccc1C
  x, -0.56
CC1Cc2cc(S(=O)(=O)CCC(=O)Nc3cccc4c3CCCC4)ccc2N1C(=O)C1CC1 (stereo not drawn)
  0.55, x
Cc1ccccc1CN1CCc2nc(N3CCCC3)ncc2C1
  0.46, x
COC(=O)CSc1nc(-c2ccc(F)cc2)cc(C(F)(F)F)n1
  1.5, -0.24
Cc1ccc(NS(=O)(=O)c2ccc3[nH]c(=O)[nH]c3c2)c(C)c1
  0.01, x
CCOC(=O)C(NCCc1ccc(OC)c(OC)c1)(NC(=O)c1ccccc1Cl)C(F)(F)F (stereo not drawn)
  x, -0.82
CC(C)NC(=O)c1ccc(CS(=O)c2ccc(Br)cc2)o1 (stereo not drawn)
  0.78, x
COC(=O)c1cc(S(=O)(=O)N2CCN(c3ccc(F)cc3)CC2)c[nH]1
  -0.63, x
Cc1ccc(-n2c(C)c(C)c3c2ncn2nc(-c4ccncc4)nc32)cc1
  1.7, -1.1
Cc1cc(-c2ccc(S(=O)(=O)N3CCn4c3nc3ccccc34)s2)on1
  -0.32, x
CSc1nc2c(c(=O)[nH]1)C(c1ccccc1OC(C)C)CC(=O)N2 (stereo not drawn)
  0.73, -1.1
CC1=C(C(=O)OC(C)C)C(c2ccc(F)c(Br)c2)CC(=O)N1 (stereo not drawn)
  1.6, -0.99
COc1ccc(-c2noc(CSc3nnc(C)n3-c3ccc(C)cc3)n2)c(OC)c1
  3.2, -1.8
O=C(NCc1cccnc1)C1CCN(c2nc3ccccc3o2)CC1
  x, -1
O=C(Cn1ncc2ccccc21)NCc1cccs1
  0.69, 1.3
Cc1c(C(=O)N2CCCC2)oc2c1-c1nn(CC(=O)NC(C)c3ccc4c(c3)OCCO4)cc1CC2 (stereo not drawn)
  2.6, x
COc1ccc(OC)c(C2SC(NC(C)=O)=NN2C(C)=O)c1 (stereo not drawn)
  1.5, -1.5
COc1ccc(OCC(O)Cn2c(N3CCOCC3)nc3c2c(=O)n(C)c(=O)n3C)cc1 (stereo not drawn)
  x, 1.1
COc1ccc(C2CC(=O)C=C(NCC3CCCO3)C2)cc1 (stereo not drawn)
  0.26, 0.2
COc1ccc(CN[C@H]2CS(=O)(=O)C[C@@H]2S(=O)(=O)c2cccs2)cc1OC
  -0.21, -1.6
CCS(=O)(=O)NCCc1cc2ccc(OC)cc2[nH]c1=O
  x, -2.3
CCCN(C1=NC2CS(=O)(=O)CC2S1)c1ccc(C(C)C)cc1 (stereo not drawn)
  2.2, -2.1
Cc1cccc(CCNc2ncnc3c2nc2n3CCCCC2)c1
  0.76, x
O=C(Nc1cccc(O)c1)c1cc(C2CC2)on1
  0.74, 1.2
COc1ccc(OCc2nc3c4c5c(sc4ncn3n2)CCCC5)cc1
  x, -3.9
C=CCSc1nc(=O)c2c(n1C)NC(=O)CC2c1ccc(C(=O)OC)cc1 (stereo not drawn)
  0.86, -1.5
CC[C@]1(O)C[C@H]2CN(CCc3c([nH]c4ccccc34)C(C(=O)OC)[C@H]2c2cc3c(cc2OC)N(C)[C@H]2[C@@](O)(C(=O)OC)[C@H](OC(C)=O)[C@]4(CC)C=CCN5CC[C@]32[C@@H]54)C1 (stereo partly drawn)
  1.7, x
COc1ccc(-c2nnc(SCC(=O)Oc3ccc(C)cc3C)o2)cc1
  1.7, -0.6
Cc1cccn2c(=O)c3cc(C(=O)NC4CCCCCC4)sc3nc12
  x, 0.03
O=C(c1cccn2c(=O)c3sccc3nc12)N1CCOCC1
  x, -0.69
COc1cc(NC(=O)N2c3ccccc3NC3=C(C(=O)CCC3)C2c2ccco2)cc(OC)c1 (stereo not drawn)
  2.5, x
CC1Sc2ccc(S(=O)(=O)CCC(=O)N3CCCCC3)cc2NC1=O (stereo not drawn)
  2, x
Cc1cc(C(F)(F)F)c2c(C)nn(-c3ccc(C)c(C)c3)c2n1
  -0.2, 1.7
c1csc(-c2nn3c(C4COc5ccccc5O4)nnc3s2)c1 (stereo not drawn)
  1.8, -2.3
O=C1c2ccccc2N(Cc2ccccc2)C(=O)C1(Cl)Cl
  x, -2.4
C[C@]12C=CC(=O)C=C1CCC1C3C[C@@H](O)[C@](O)(C(=O)CO)[C@@]3(C)C[C@H](O)[C@@]12F (stereo partly drawn)
  1.9, x
COc1cccc(NS(=O)(=O)c2ccc3oc(=O)c4ncn(C)c4c3c2)c1
  0.11, x
Cc1ccc(S(=O)(=O)c2cn(C)c3cc(N4CCC(C)CC4)c(F)cc3c2=O)cc1
  1.5, x
O=c1ccn([C@@H]2O[C@H](COP(=O)(O)OP(=O)(O)O)[C@@H](O)[C@H]2O)c(=O)[nH]1
  x, -1.5
CNC(=O)CCc1nc2sc3c(c2c(=O)[nH]1)CCC(C(C)(C)C)C3 (stereo not drawn)
  1.7, x
Clc1cc(N2CCCCC2)nc(N2CCCCC2)n1
  x, -1.3
CCOc1ccc(-n2nnc(-c3nc(-c4ccc(Cl)cc4)no3)c2N)cc1
  -1.2, x
Clc1ccc(Cc2nnc3sc(-c4ccncc4)nn23)cc1
  -0.56, -1.2
COCCCNS(=O)(=O)c1ccc(N2CCCCS2(=O)=O)cc1
  1.4, x
O=c1c2cn(Cc3ccc(F)cc3)c3ccc(F)cc3c-2nn1Cc1ccc(F)cc1
  -0.42, x
CCOC(=O)c1c(C)oc(NC(=O)c2cc(C)on2)c1C#N
  0.78, x
Clc1cccc(Nc2nc(NCc3ccco3)c3ccccc3n2)c1
  -0.73, 2.5
Cn1nccc1NC(=O)CN(CC(=O)O)Cc1ccccc1
  x, -0.68
CCC1(C)Cc2c(sc3nc(SCC(=O)c4ccc(F)cc4)nc(N)c23)CO1 (stereo not drawn)
  0.09, -3.7

# Next part.
# Under each structure: TAR Tat displ, CDC25B CDK2 inh
CCOC(=O)c1c(NC(=O)Cc2nn(C)c(=O)c3ccccc23)sc(C)c1C
  -1.3, 1.2
Cc1csc(C(=O)NN)c1
  x, -0.27
CC1=C(C(=O)OCC2CCCO2)C(c2coc3ccc(Cl)cc3c2=O)C2=C(CCCC2=O)N1 (stereo not drawn)
  0.18, -1.7
O=C(CCc1nc(-c2cccs2)no1)Nc1ccc(Cl)cc1
  -0.02, 0.1
COc1ccccc1CCNc1sc(S(C)(=O)=O)nc1S(=O)(=O)c1ccc(Cl)cc1
  0.51, -7.4
Cc1ccc(-c2nc3sc(CCNS(=O)(=O)c4ccc(Br)cc4)c(C)n3n2)cc1
  1.1, x
COc1cc(C2Nc3ccccc3NC3=C2C(=O)CCC3)ccc1O (stereo not drawn)
  x, -0.29
Cc1cc(C)n(Cc2c(C(=O)NCCCN3CCCCC3)noc2C)n1
  0.56, x
COC(=O)c1cc2sc(Cl)cc2n1CC(=O)N1CCCC1
  x, -1.3
CCOC(=O)c1c(NC(=O)c2nn(-c3ccc(OC)cc3)ccc2=O)sc2c1CCCC2
  1.2, -0.65
Cc1ccc(S(=O)(=O)[C@H]2CS(=O)(=O)C[C@@H]2N2CCN(c3cccc(C)c3C)CC2)cc1
  1.1, -1.1
Cn1cc(S(=O)(=O)N2CCOCC2)cc1C(=O)N1CCn2c1nc1ccccc12
  0.77, x
Cc1cc(C)cc(-n2nnc(-c3nc(-c4ccccc4C)no3)c2C)c1
  0.7, x
CCCCc1nnc(SCc2cc(=O)c3cccc(F)c3[nH]2)n1C
  -0.38, x
CCSCCOC(=O)C1=C(C)NC2=C(C(=O)CCC2)C1c1cccc(Oc2ccccc2)c1 (stereo not drawn)
  0.71, 0.55
C=Cc1c(S(C)(=O)=O)sc(C(=O)NC)c1C
  x, -1.6
Cc1c(CCO)c(=O)n2c([nH]c3ccccc32)c1C#N
  x, -0.07
C=CCNC(=O)c1c(O)c2cccc3c2n(c1=O)CCC3
  1.9, x
CCN(CC)CCNC(=O)c1cc2c(s1)-c1ccc(Cl)cc1SC2
  1.9, -1.2
O=S(=O)(c1ccc(S(=O)(=O)N(Cc2ccccc2)Cc2ccc(F)cc2)cc1)N1CCCC1
  1.5, 0.22
O=C(Nc1scc(-c2ccccc2)c1C(=O)O)c1cccc(Br)c1
  x, -1.2
COc1cccc(Cc2nnc(-c3ccc4c(c3)OCO4)o2)c1
  x, 0.14
COc1ccc(C2Nc3ccc(C)cc3-c3cc(C)nn32)cc1OC (stereo not drawn)
  -0.81, -3.4
CCOc1ccc(-c2nc3ncccn3c2NCc2ccc(F)cc2)cc1OCC
  -0.93, x
COc1ccc(-c2nc3ncccn3c2NCc2ccc(F)cc2)cc1OC
  -0.28, x
Cc1cc(C)nc(N2CCC(NC3CC(=O)N(c4ccc(F)cc4)C3=O)CC2)n1 (stereo not drawn)
  1.2, 0.24
CN(CC(=O)N1CCc2ccccc21)S(=O)(=O)c1ccc2c(c1)c(=O)n(C)c(=O)n2C
  x, -1.8
Cc1c(C(=O)N2CCC(C)CC2)c(S(=O)(=O)Nc2ccc(Br)cc2F)c(C)n1C
  -0.1, x
Cc1ccc(S(=O)(=O)/N=C(\N)Nc2nc3ccccc3s2)cc1
  x, -2.6

# Rewritten as labelled records: three of the compounds above.
> COc1ccc(C2Nc3ccc(C)cc3-c3cc(C)nn32)cc1OC (stereo not drawn)
  TAR Tat displ: -0.81
  CDC25B CDK2 inh: -3.4
> CCOc1ccc(-c2nc3ncccn3c2NCc2ccc(F)cc2)cc1OCC
  TAR Tat displ: -0.93
  CDC25B CDK2 inh: x
> COc1ccc(-c2nc3ncccn3c2NCc2ccc(F)cc2)cc1OC
  TAR Tat displ: -0.28
  CDC25B CDK2 inh: x

# Compound activity deposited in PubChem by Center for Chemical Genomics, University of Michigan.
